Screens as filed in PubChem.
Ecoli rRNA inh = inhibitors of bacterial rRNA selective over humanized ribosomes. E. coli WT GFP vs humanized-ribosome RFP mutants, fluorescence, 24 h; stronger effect = lower value; DMSO median 0, no signal -100. GFP signal change (wild-type ribosome), % (test concentration not listed). 350,000 compounds, 1.6% hits;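 active = significant combined selectivity score with lowered wild-type GFP, culture density cut under 30%, mutant RFP and density less affected; inactive = any of these conditions unmet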; also: one replicate is shown; some compounds called inactive have numbers as strong as hits
Ecoli rRNA inh OD600 = further read-out of Ecoli rRNA inh, marked with its call; OD600 change, %; measured here: OD600 growth;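 optical density of the mix in the first replicate; 0 = DMSO median and -100 = no signal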
Ecoli rRNA inh RFP = further read-out of Ecoli rRNA inh, marked with its call; RFP signal change, %; measured here: RFP humanized mutant strains;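 first replicate; 0 = DMSO median and -100 = no signal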
* hit, by the source's call; & = joins results of further samples.

SMILES	Ecoli rRNA inh	Ecoli rRNA inh OD600	Ecoli rRNA inh RFP
CCS(=O)(=O)Nc1ccc2c(c1)C(=O)N(C)C[C@@H](OC)[C@H](C)CN(C)[C@@H](C)CO2	0	3	5.3
Cc1noc(C)c1S(=O)(=O)Nc1ccc2c(c1)C(=O)N([C@H](C)CO)C[C@H](C)[C@@H](CN(C)C)OCCCC[C@@H](C)O2	-1	-3	-2.0
O=C(N[C@H]1CC[C@H](CC(=O)N2CCCCC2)O[C@@H]1CO)c1ccccn1	0	1	-0.3
C[C@@H]1CN([C@H](C)CO)C(=O)c2cc(-c3cccc(F)c3)cnc2O[C@H]1CN(C)Cc1cccc(F)c1	-3	-3	0.9
Cc1ccc(S(=O)(=O)N(C)C[C@@H]2OCCCC[C@@H](C)Oc3ccc(NC(=O)NC(C)C)cc3C(=O)N([C@H](C)CO)C[C@@H]2C)cc1	-2	-3	0.9
O=C(Nc1cccc(F)c1)N1CC(=O)N2[C@H](CO)[C@H](c3ccc(-c4cccc(F)c4)cc3)[C@@H]2C1	-41	-70	-4.1
Cc1ccc(-c2ccc([C@@H]3[C@@H](CO)N4C(=O)CN(S(=O)(=O)c5cccc(F)c5)C[C@H]34)cc2)cc1	1	-12	8.7
C[C@H]1COCc2cn(nn2)CCCC(=O)N1	2	4	-2.3
Cc1ccc(S(=O)(=O)N(C)C[C@@H]2Oc3ccc(NC(=O)Nc4cccc5ccccc45)cc3C(=O)N([C@@H](C)CO)C[C@@H]2C)cc1	1	-3	-2.4
C[C@H](CO)N1C[C@H](C)[C@H](CN(C)Cc2ccncc2)Oc2ccc(NC(=O)CCC(F)(F)F)cc2C1=O	2	5	-1.6
C[C@@H]1CN([C@H](C)CO)S(=O)(=O)c2ccc(C#CC3CC3)cc2O[C@H]1CN(C)C(=O)C1CCCCC1	-17	-48	16
C[C@H](CO)N1C[C@H](C)[C@@H](CN(C)C(=O)[C@@H]2CCCN2C)OCc2ccccc2-c2ccccc2C1=O	0	0	-0.9
C[C@@H]1CN([C@@H](C)CO)C(=O)c2cc(NS(C)(=O)=O)ccc2O[C@@H](C)CCCCO[C@@H]1CN(C)C(=O)C1CCCCC1	-3	-2	-1.9
C[C@@H]1CN([C@H](C)CO)C(=O)c2cccc(NC(=O)C3CCCCC3)c2O[C@H]1CN(C)Cc1ccc(-c2ccccc2)cc1	3	-4	-1.8
O=C(Nc1ccccc1)N1CC(=O)N2[C@H](CO)[C@H](c3ccc(C#CC4CCCCC4)cc3)[C@H]2C1	-7	-27	12

Quoted at random: 2 compounds from above.
SMILES	Ecoli rRNA inh	Ecoli rRNA inh OD600	Ecoli rRNA inh RFP
C[C@@H]1CN([C@H](C)CO)S(=O)(=O)c2ccc(C#CC3CC3)cc2O[C@H]1CN(C)C(=O)C1CCCCC1	-17	-48	16
O=C(Nc1cccc(F)c1)N1CC(=O)N2[C@H](CO)[C@H](c3ccc(-c4cccc(F)c4)cc3)[C@@H]2C1	-41	-70	-4.1

Next records.
SMILES	Ecoli rRNA inh	Ecoli rRNA inh OD600	Ecoli rRNA inh RFP
COc1ccc(-c2ccc([C@@H]3[C@@H](CO)N4C(=O)CN(C(=O)Cc5ccccn5)C[C@H]34)cc2)cc1	1	-4	-1.5
Fc1ccc(CN2[C@@H]3CN(CC(F)(F)F)C[C@H]2C3c2ccccc2)cc1 (stereo partly drawn)	-7&-8&-10	-7&-17&-24	5.7&2.0&5.7
C[C@@H]1CN([C@@H](C)CO)C(=O)c2cccc(NC(=O)c3cnccn3)c2O[C@@H]1CN(C)S(=O)(=O)c1ccc(Cl)cc1	-6	0	0.7
O=C(C1CCCC1)N1CC2(C1)[C@H](c1ccccc1)[C@H](CO)N2CC1CCCC1	-33	-67	20
O=C1N[C@@H](c2ccccc2)COCc2cn(nn2)CC[C@H]1Cc1ccc(C(F)(F)F)cc1	1	-14	0.6
C[C@H]1CN([C@@H](C)CO)C(=O)Cc2cc(NC(=O)Nc3ccccc3)ccc2O[C@H]1CN(C)S(=O)(=O)c1ccc(Cl)cc1	4	-5	1.8
C[C@@H]1CN([C@H](C)CO)C(=O)c2cc(NS(=O)(=O)c3ccccc3)ccc2O[C@H]1CN(C)C	6	1	-0.3
COc1ccc(C#Cc2cnc3c(c2)C(=O)N([C@H](C)CO)C[C@@H](C)[C@H](CN(C)C(=O)Nc2cccc(OC)c2)O3)cc1	2	0	-1.5
CC=Cc1ccc2n(c1=O)C[C@H]1[C@H](CO)[C@@H](C(=O)NCCc3cn(C)cn3)[C@@H]2N1C(=O)CC1CC1 (mixture of isomers)	4	5	-2.1
O=C1CN(Cc2ccccc2)C[C@@H]2[C@@H](c3ccc(-c4ccccc4F)cc3)[C@@H](CO)N12	2	-31	26
C[C@@H]1CCCCO[C@@H](CN(C)C(=O)CCCN(C)C)[C@@H](C)CN([C@@H](C)CO)C(=O)c2cc(NS(=O)(=O)c3cccs3)ccc2O1	8	0	0.8
C[C@H](CO)N1C[C@H](C)[C@@H](CN(C)Cc2ccc(C(=O)O)cc2)OCc2ccccc2-c2ccccc2C1=O	3	15	-4.7
CN1C(=O)c2cc(NC(=O)Nc3ccc(Cl)cc3)ccc2OC[C@@H]2O[C@@H](CC(=O)O)CC[C@H]21	-5	-6	-4.3
CCN1[C@@H]2c3ccc(-c4ccc(F)cc4)c(=O)n3C[C@@H]2[C@@H](CO)[C@@H]1C(=O)NC1CCC1	-2	7	-2.1
CC(C)C#Cc1cnc2c(c1)C(=O)N([C@@H](C)CO)C[C@@H](C)[C@@H](CN(C)C(=O)CC1CC1)O2	5	9	-4.6
COc1cccc(-c2ccc([C@@H]3[C@H]4CN(Cc5cncnc5)CCCCN4[C@H]3CO)cc2)c1	4	12	3.3
Cc1ccc(S(=O)(=O)N(C)C[C@@H]2Oc3ccc(NS(=O)(=O)c4cn(C)cn4)cc3C(=O)N([C@@H](C)CO)C[C@@H]2C)cc1	4	6	-0.6
O=S(=O)(c1ccccc1)N1CC2(C1)[C@H](c1ccccc1)[C@@H](CO)N2CC1CC1	-1	-12	-3.8
CS(=O)(=O)N1CC2(C1)[C@@H](c1ccccc1)[C@H](CO)N2C(=O)C1CCC1	3	11	-2.1
COc1ccc2c3c(n(C)c2c1)[C@H](CO)N(C(=O)CN(C)C)CC31CCN(S(C)(=O)=O)CC1	7	19	-0.7
COCCNC(=O)[C@@H]1[C@@H](CO)[C@@H]2Cn3c(cccc3=O)[C@@H]2N1Cc1ccccc1OC	5	9	-0.4
COc1ccccc1-c1ccc(C2[C@@H]3CN(S(=O)(=O)c4ccccc4)C[C@H]2N3)cc1 (stereo partly drawn)	-55	-80	-12
CCc1nc(N2[C@H](C#N)[C@@H](c3ccccc3-c3ccc(F)cc3)[C@@H]2CO)sc1C	-13	-19	-2.3
O=C(Nc1ccc(F)cc1)N1CC(=O)N2[C@H](CO)[C@@H](c3ccc(C#Cc4cccnc4)cc3)[C@H]2C1	0	15	-1.4
C[C@@H]1CN([C@@H](C)CO)C(=O)c2cc(NS(=O)(=O)c3ccc(Cl)cc3)ccc2O[C@@H](C)CCCCO[C@@H]1CN(C)C(=O)Nc1ccc(F)cc1	-1	-1	-2.4
COC(=O)C[C@H]1CC[C@H]2[C@@H](COc3ccc(NC(=O)c4ccc(F)c(F)c4)cc3C(=O)N2C)O1	-2	-3	-1.3
CC=Cc1ccc2n(c1=O)C[C@H]1[C@H](CO)[C@@H](C(=O)N3CCC(Cc4ccccc4)CC3)N(C)[C@@H]21 (mixture of isomers)	-10	-25	0.7
COc1ccc2c3c([nH]c2c1)[C@@H](CO)N(C(=O)C1CCOCC1)CC31CN(C)C1	9	9	-3.2
CO[C@@H](C(=O)N(C)C[C@@H]1OCc2ccccc2-c2c(n(C)c3ccccc23)C(=O)N([C@H](C)CO)C[C@H]1C)c1ccccc1	2	-3	-0.5
COCC(=O)Nc1ccc2c(c1)OC[C@H](C)N(C(=O)c1ccccn1)C[C@@H](C)[C@H](OC)CN(C)C2=O	-1	3	-0.9
C[C@@H]1CN([C@H](C)CO)C(=O)c2c(c3ccccc3n2C)-c2ccccc2CO[C@@H]1CN(C)Cc1ccccc1C(F)(F)F	3	-2	-4.5
CC(C)NC(=O)N(C)C[C@@H]1Oc2ncc(-c3cccc(C#N)c3)cc2C(=O)N([C@@H](C)CO)C[C@@H]1C	-1	2	-5.8
C[C@H]1CN([C@@H](C)CO)C(=O)c2cc(-c3ccccc3)cnc2O[C@H]1CN(C)C(=O)c1cccc(F)c1	5	2	-2.0
N#Cc1cccc(-c2ccc(C3[C@H]4CNC[C@@H]3N4S(=O)(=O)c3ccccc3)cc2)c1 (stereo partly drawn)	-3&-20	-6&-55	2.1&-5.7
COc1ccccc1-c1ccc2n(c1=O)C[C@@H]1[C@@H](CO)[C@H](C(=O)Nc3nccs3)N(C)[C@H]21	-3	-1	1.1
O=C(Nc1cccc(F)c1)N1CC(=O)N2[C@H](C1)[C@H](c1ccc(-c3ccccc3F)cc1)[C@@H]2CO	-14	-63	20
Cc1noc(C)c1NC(=O)N(C)C[C@@H]1Oc2c(NC(=O)Nc3ccccc3)cccc2C(=O)N([C@H](C)CO)C[C@@H]1C	1	5	0.1
O=C(C[C@H]1CC[C@@H](NC(=O)C2CCOCC2)[C@@H](CO)O1)NCC1CC1	2	1	-0.5
CN(C)c1ccc2c(c1)[C@H]1C[C@H](CC(=O)NCc3ccccc3F)O[C@H](CO)[C@H]1O2	-8	-3	0.4
C[C@@H]1CN([C@@H](C)CO)C(=O)c2cccc(NC(=O)Nc3ccc(C(F)(F)F)cc3)c2O[C@H]1CN(C)Cc1ccc(C(=O)O)cc1	-4	-7	-3.1
C[C@@H]1CN([C@@H](C)CO)C(=O)CCCn2cc(nn2)CO[C@@H]1CN(C)S(=O)(=O)c1ccc2ccccc2c1	-5	-9	2.2
CC(=O)N1CC2(C1)[C@@H](c1ccc(-c3cccc(F)c3)cc1)[C@@H](CO)N2CC1CC1	-3	-7	1.9
C[C@@H]1CN([C@@H](C)CO)C(=O)Cc2cc(NS(C)(=O)=O)ccc2O[C@@H]1CN(C)Cc1ccc(C(=O)Nc2ccccc2N)cc1	1	-7	0.8
C/C=C/c1ccc(C2[C@H]3CNC[C@@H]2N3Cc2cc(OC)cc(OC)c2)cc1 (stereo partly drawn)	6&6	22&15	1.2&2.2
CCCNC(=O)C[C@H]1C[C@H]2c3cc(N(C)C)ccc3O[C@H]2[C@@H](CO)O1	2	6	3.8
CCS(=O)(=O)N1CC2(C1)[C@@H](c1ccccc1)[C@H](CO)N2C(=O)C1CC1	2	-3	-2.5
CC(=O)N1CC(=O)N2[C@H](CO)[C@H](c3ccc(C#Cc4cccnc4)cc3)[C@@H]2C1	1	-2	-3.9
C[C@H]1CN([C@@H](C)CO)S(=O)(=O)c2ccc(C#CCN(C)C)cc2O[C@@H]1CN(C)C(=O)C1CC1	8	11	-4.7
C[C@H](CO)N1C[C@H](C)[C@H](CN(C)Cc2ccc(C(=O)Nc3ccccc3N)cc2)Oc2c(NC(=O)NC3CCCCC3)cccc2C1=O	1	-5	0.3
N#C[C@H]1[C@@H](c2ccccc2-c2cccc(F)c2)[C@H](CO)N1C(=O)C1CCCC1	-2	-11	3.2
C[C@@H]1CN([C@@H](C)CO)C(=O)CCCn2cc(nn2)CO[C@@H]1CN(C)S(=O)(=O)c1ccccc1F	-2	1	-1.5
O=C(C[C@H]1C[C@H]2c3cc(NS(=O)(=O)c4ccc(F)cc4)ccc3O[C@H]2[C@@H](CO)O1)NCc1ccccc1F	-5	-13	2.7
N#C[C@H]1[C@@H](c2ccc(C3=CCCCC3)cc2)[C@@H](CO)N1C(=O)NC1CCCC1	2	4	3.2
CCCNC(=O)N1C[C@H](C)[C@@H](OC)CN(C)C(=O)c2cc(NC(=O)C3CCC3)ccc2OC[C@@H]1C	0	-2	-0.8
O=C(C[C@H]1C[C@H]2c3cc(NC(=O)c4cccnc4)ccc3O[C@H]2[C@H](CO)O1)NC1CCCC1	1	0	4.2
CCCNC(=O)Nc1ccc2c(c1)C(=O)N(C)C[C@H](OC)[C@@H](C)CN(C(C)=O)[C@@H](C)CO2	4	2	-0.8

Compound profiles, as listed above:
C[C@@H]1CN([C@H](C)CO)C(=O)c2cccc(NC(=O)C3CCCCC3)c2O[C@H]1CN(C)Cc1ccc(-c2ccccc2)cc1 is listed with Ecoli rRNA inh: 3; Ecoli rRNA inh OD600: -4; Ecoli rRNA inh RFP: -1.8
CCCNC(=O)C[C@H]1C[C@H]2c3cc(N(C)C)ccc3O[C@H]2[C@@H](CO)O1 is listed with Ecoli rRNA inh: 2; Ecoli rRNA inh OD600: 6; Ecoli rRNA inh RFP: 3.8
CC(C)NC(=O)N(C)C[C@@H]1Oc2ncc(-c3cccc(C#N)c3)cc2C(=O)N([C@@H](C)CO)C[C@@H]1C is listed with Ecoli rRNA inh: -1; Ecoli rRNA inh OD600: 2; Ecoli rRNA inh RFP: -5.8

A portion of the library, so the mix of outcomes need not match the whole.
